Cruzain noTriton: blocks cruzain activity in detergent-free assay | Potency, µM, for the others: max response, negative = inhibition, most hits filed as inhibitors | hit rate 2.3% among 200,000 | P25779 | purified cruzain, Z-FR-AMC fluorescence, no detergent;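 also: plate controls were enzyme without inhibitor for no effect and buffer without enzyme for full effect; nearly all actives have a fitted effect of over 40% in size; top concentration of the series not given in the record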
Target sequence (P25779 123-467 limits assumed): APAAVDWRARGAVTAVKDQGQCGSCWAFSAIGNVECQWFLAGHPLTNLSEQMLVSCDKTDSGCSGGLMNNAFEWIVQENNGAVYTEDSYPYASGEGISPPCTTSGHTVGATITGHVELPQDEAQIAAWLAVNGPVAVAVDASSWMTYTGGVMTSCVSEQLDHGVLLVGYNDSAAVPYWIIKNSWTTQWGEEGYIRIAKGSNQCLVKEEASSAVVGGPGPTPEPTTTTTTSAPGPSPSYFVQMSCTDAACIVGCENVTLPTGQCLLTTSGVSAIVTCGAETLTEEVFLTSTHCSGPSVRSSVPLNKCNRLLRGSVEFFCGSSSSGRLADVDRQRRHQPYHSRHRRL
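Detergent-free condition (0.00005% Triton X-100) in acetate buffer pH 5.5 with DTT. 1.5 nM enzyme and compound were pre-mixed 15 min, then 2 uM Z-FR-AMC substrate added; reaction progress from fluorescence change between first and third reads (60 s).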
RE007 growth inh: less growth of the S. pombe RE007 Vpr strain; S. pombe RE007 Vpr strain, BacTiter-Glo ATP luminescence, 24 h; control for the full effect not named in the record; Potency, µM (doses to about 92.2 µM), inactives show at the top dose activity change, negative = less growth; hit rate 0.21% among 360,000; AID 651644; active = well fitted falling curve with a large enough effect; inconclusive = small, poorly fitted or top-dose-only effect; inactive = no such curve, though single readings can be large or run the other way;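 also: % is scaled to controls: 0 for no effect and ±100 for the full control effect; nearly all actives have a fitted effect of over 50% in size; the assay follows cell death caused by Vpr and the record does not say whether a fall means rescue or toxicity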
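Fission yeast RE007 carrying one integrated HIV-1 vpr copy, seeded at OD 0.01 in PMG+AL medium with 23 nL pinned compound. Grown 24 h at 30 degrees; viability read by BacTiter-Glo luminescence after 5 min.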
LASV entry inh: Lassa virus entry inhibition; Lassa virus pseudotype entry inhibition, cell reporter; control for the full effect not named in the record; Potency, µM (titrated, usually from 37.9 µM), inactives show top-dose activity change, negative = inhibition, hits mostly inhibitors; hit rate 1.2% among 300,000; AID 540256; active means well fitted inhibition curve with a large enough effect; inconclusive means small, poorly fitted or top-dose-only effect, or effect the other way; inactive means flat fitted curve, though single readings scatter; tested in HEK293 cells; also: % is scaled to controls: 0 for no effect and ±100 for the full control effect; nearly all actives have a fitted effect of over 50% in size; luciferase read-out
StopGo reporter: FMDV 2A StopGo reporter, luciferase signal; human cells with a luciferase reporter of 2A StopGo recoding; control for the full effect not named in the record; Potency, µM (highest dose often 57.9 µM), for inactives: at the top dose signal change, negative = less light; hit rate 1.2% among 410,000; active = well fitted falling curve with a large enough effect; inconclusive = small, poorly fitted or top-dose-only effect; inactive = no such curve, though single readings can be large or run the other way; tested in HEK293T cells; also: % is scaled to controls: 0 for no effect and ±100 for the full control effect; nearly all actives have a fitted effect of over 45% in size; luciferase light after 4 h
Cruzain Triton: inhibitors of Trypanosoma cruzi cruzain with detergent. hit rate 0.43% among 200,000. Potency, µM, without a hit: max response, negative = inhibition, actives largely listed as inhibitors. purified cruzain, Z-FR-AMC fluorescence, 0.01% Triton. P25779. AID 1478;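 also: plate controls were neutral wells for no effect and buffer without enzyme for full effect; nearly all actives have a fitted effect of over 40% in size; top concentration of the series not given in the record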
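Enzyme 1.5 nM, Z-FR-AMC 2 uM, NaOAc 100 mM pH 5.5, DTT 5 mM, Triton X-100 0.01%; 15 min RT compound preincubation; kinetic ex360/em450, 60 s delta.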
Marburg entry inh: inhibitors of Marburg virus binding or cell entry; hit rate 1.8% among 300,000; Potency, µM (titrated, usually from 37.8 µM), for inactives: at the highest dose activity change, negative = inhibition, hits mostly inhibitors; Marburg virus pseudotyped entry inhibition, cell reporter; control for the full effect not named in the record; about a third of the inactives were read at about 46 µM; active = well fitted inhibition curve with a large enough effect; inconclusive = small, poorly fitted or top-dose-only effect, or effect the other way; inactive = flat fitted curve, though single readings scatter; tested in HEK293 cells; about a fifth of its hits are not listed in these tables; also: % is scaled to controls: 0 for no effect and ±100 for the full control effect; luciferase read-out
NS1 function inh: influenza NS1 inhibition. S. cerevisiae slowed by influenza A NS1, growth recovery by OD600. Potency, µM (highest dose often 46.1 µM), inactives show at the highest dose activity, positive = more growth. hit rate 0.4% among 270,000. AID 2326; active means well fitted rising curve with a large enough effect; inconclusive means small, poorly fitted or top-dose-only effect; inactive means no such curve, though single readings can be large or run the other way; also: nearly all actives have a fitted effect of over 50% in size
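Growth recovery, yeast-based: influenza A NS1 expressed in S. cerevisiae causes slow growth, and suppressors are detected by OD600. The parent strain without NS1 is used as positive control.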
SARS PLpro yeast: blocks SARS-CoV papain-like protease in a yeast assay; Potency, µM (doses to about 32.9 µM), for the others: at the highest dose activity, positive = growth rescue; S. cerevisiae expressing SARS-CoV PLpro, growth rescue; control for the full effect not named in the record; hit rate 0.19% among 330,000; AID 485353; active means well fitted rising curve with a large enough effect; inconclusive means small, poorly fitted or top-dose-only effect; inactive means no such curve, though single readings can be large or run the other way; also: 0% is about no effect; nearly all actives have a fitted effect of over 55% in size; growth read by luminescence after 48 h
The depositor's hits bear a star; u = inconclusive; x = no result given; & = joins results of further samples; [ ] = remark or other dose. Unless noted, calls follow the shape of the dose curve; as a rule, active = well fitted curve in the direction sought with a large enough effect; inconclusive = small, poorly fitted or top-dose-only effect, or another doubt; inactive = no such curve, though single readings can be large; an effect the other way counts as inactive or inconclusive. Potency is read from the fitted curve at half-maximal effect.

SMILES | Cruzain noTriton | RE007 growth inh | LASV entry inh | StopGo reporter | Cruzain Triton | Marburg entry inh | NS1 function inh | SARS PLpro yeast
COc1cc2nc(Nc3cccc(F)c3)nc(N)c2cc1OC | -4% | 9% | u | -22%&-19% | -28% | u | -1% | -1%
CNc1nc(-c2ccc3c(c2)CCN3S(=O)(=O)c2ccccc2)c(C)s1 | x | -1% | u | u | x | u | 10% | -3%
CCNc1cc(=O)n(C)c(=O)n1C | 8% | 1% | 12% | -8% | 2.9% | 0% | 4% | -1%
O=C(c1cc(Cl)cc(Cl)c1)N1CCC(=O)N(C(COCc2ccccc2)Cc2ccccc2)CC1 (stereo not drawn) | u | 33% | u | -1% | -3.4% | u | -10% | -1%
O=C(Nc1nncs1)c1cccnc1Cl | -1% | -1% | 12% | -12% | -2.7% | 8% | -1% | -1%
COc1cc(Cl)c(NC(=O)c2cc(CN3CCCC3)on2)c(OC)c1 | -12% | x | 14%[46.1 µM] | -20% | -3.8% | 21%[46.1 µM] | x | x
COC(=O)c1ccccc1NC(=O)COC(=O)c1ccc(C)c(NC(=O)c2ccco2)c1 | 14% | u | u | u | 0.9% | u | -18% | -4%
CC1=CS(=O)(=O)CC1SC(=S)N(C)C1CCS(=O)(=O)C1 (stereo not drawn) | x | -3% | 1%[46.1 µM] | 9% | x | 26%[46.1 µM] | x | 2%
COc1ccc2[nH]c(=O)c(-c3noc(-c4ccccc4)n3)cc2c1 | -23% | -1% | 0% | 23% | 3.9% | 15% | 2% | 7%
Cc1cc(NC(=O)/C=C/c2ccccc2Cl)n(-c2nc3ccccc3[nH]2)n1 | -25% | -22% | u | -24% | -3.5% | u | 5% | 1%
CC1CCCC(NC(=O)CCNC(=O)c2ccccc2Cl)C1C (stereo not drawn) | x | 0% | u | -2% | x | 11% | x | 0%
Cc1ccc(C(=O)CSc2nnc(COc3cccc(C)c3)o2)cc1 | -12% | -3% | -10% | -27% | -3.0% | 2% | 6% | -22%
Cc1cc(C(=O)OCC(=O)NC2CCC(C)CC2)c(C)o1 (stereo not drawn) | x | -7% | -3% | 0% | x | u | x | -3%
COc1cccc(-n2cc(C(=O)Nc3cc(C)c(Cl)cc3OC)c3ccccc3c2=O)c1 | 3% | x | -10%[46.1 µM] | -16% | -2.7% | x | x | x
CC1(C)CC2CC(C)(CN2C(=O)COC(=O)Cn2[nH]c(=O)c3ccccc3c2=O)C1 (stereo not drawn) | 0% | 0% | -10% | -33% | -3.8% | 1% | 1% | -1%
COc1ccccc1C(=O)NC(CCSC)C(=O)NCCCn1nc(C)cc1C (stereo not drawn) | x | -9% | 11% | -10% | x | -12% | x | 1%
CSCCC(N=C1NS(=O)(=O)c2ccccc21)C(=O)NCc1ccccc1F (stereo not drawn) | x | -1% | -4% | -5% | x | 23% | 2% | -5%
CC1CCN(C(=O)CSc2c3c(nc4cc(Cl)ccc24)CCCC3)CC1 | 5% | x | u | u | -11% | u | x | x
N#Cc1nc(Cc2ccccc2)oc1N1CCC(C(N)=O)CC1 | 4% | 4% | 6% | 6% | -1.0% | 15% | 4% | 4%
O=C(CSc1nnc(-c2ccccn2)o1)Nc1ccccc1 | x | -7% | -13% | 3% | x | u | -5% | -1%
COc1ccccc1NC(=O)CN(Cc1ccccc1)S(C)(=O)=O | 15% | 7% | 4% | 5% | -0.5% | 17%[46.1 µM] | -1% | -13%
Cc1cc(C)n2c(SCC(=O)Nc3cc(S(=O)(=O)N(C)C)ccc3C)nnc2n1 | x | 3% | -14% | -9% | x | u | x | -1%
CN(CC(=O)Nc1c(Cl)cccc1Cl)C(=O)c1cccc(S(=O)(=O)NCc2ccccc2)c1 | x | 2% | u | 31%[activator] | x | -3% | x | 3%
COC(=O)c1nc2cc(C)ccn2c1F | 1% | -11% | 9% | 7% | -0.9% | -26% | 3% | -4%
O=C(Nc1sc2c(c1C(=O)Nc1ccc(Cl)cc1)CCCC2)c1cccs1 | -2% | x | -1%[46.1 µM] | u | -1.2% | x | x | x

Later entries
SMILES | Cruzain noTriton | RE007 growth inh | LASV entry inh | StopGo reporter | Cruzain Triton | Marburg entry inh | NS1 function inh | SARS PLpro yeast
CC(=O)N1CCc2cc(S(=O)(=O)NCCC(=O)Nc3cccc(C)c3)ccc21 | 1% | 2% | u | 12% | 5.1% | 6% | -18% | 4%
Cc1cccn2c(=O)c3cc(C(=O)NCCN4CCOCC4)c(=N)n(CCc4ccccc4)c3nc12 | u | -11% | -24% | -7% | u | u | 10% | -1%
CCO[C@@H]1OC(C(=O)N2CCCCCCC2)=C[C@H](c2ccc3c(c2)OCO3)[C@H]1CCCO | x | -4% | x | 8% | x | x | -3% | 1%
Nc1nc(COc2ccc(F)cc2Cl)nc(N2CCCCC2)n1 | x | 11% | -12%[46.1 µM] | -15% | x | u | x | -12%
CSC1=NSC2=NC(=O)/C(=C\c3coc4ccccc4c3=O)C(=N)N12 | u | 28µM* | 0% | u | -23% | u | -10% | -100%
CCOC(=O)c1cc(-c2cccc(C(F)(F)F)c2)nc2nc(SC)[nH]c(=O)c12 | u | -10% | 5% | -9% | -9.3% | u | 27% | 18%
COC(C[C@@H]1O[C@H]1[C@@H](O)[C@@H](C)OCc1ccccc1)OC | x | -14% | x | -9% | x | x | u | 2%
CC(=O)C1=NN(c2ccccc2)C(c2cccs2)N1c1ccccc1 (stereo not drawn) | -20% | x | x | x | -2.3% | 1% | 11% | -6%
CCOc1ccccc1NC(=O)Cn1cnc2c(nnn2-c2cccc(OC)c2)c1=O | -9% | 18% | x | -23% | -5.9% | x | 1% | -12%
Cc1cc(-c2ccccc2)n(-c2cc(N/N=C/c3ccccc3O)ncn2)n1 | 20% | -9% | 4.5µM* | u | -7.6% | 8.9µM* | u | -33%
CC(C)N(CCCNC(=O)C1CCN(S(=O)(=O)N2CCOCC2)CC1)Cc1ccccc1 | 7% | 17% | -5% | -19% | 3.6% | 2%&2% | 0% | 4%
CCOC(=O)N1C2=NC(C(=O)OC)=C(C(=O)OC)[C@@H]3N(C)c4ccccc4[C@]23C[C@H]1C(=O)OC | x | 4% | u | -15% | x | 2%[14.2 µM] | 11% | -4%
O=C(Cc1ccccc1)N1CCN(CC2CC=CCC2)CC1 (stereo not drawn) | -3% | -3% | -1% | 6% | 13% | 18%&18% | 14% | 8%
Cn1cccc1C(=O)OCC(=O)NCc1cccs1 | x | -6% | -1% | 46%[activator] | x | -1% | x | -24%
O=c1c2ccccc2cnn1-c1ccc(Br)cc1 | -2% | 4% | u | 0% | 4.2% | u | -12% | -6%
CCN(CC)c1ncnc2sc(C(=O)N3CCN(c4ccc(OC)cc4)CC3)c(C)c12 | 29% | -6% | u | u | 1.1% | 4%[46.1 µM] | -37% | 0%
CCCCNC(=O)c1onc(CSc2cccc(F)c2)c1C(=O)O | -3% | 3% | x | -11% | 1.6% | x | 6% | 6%
Cc1ccc(N2C(=O)[C@@H]3C(c4cccnc4)=NO[C@@H]3C2=O)c(C)c1 | x | 9% | x | -8% | x | x | 1% | 0%
CN1CCC(NC(=O)c2cc(-c3cccc(Br)c3)nc3ccccc23)CC1 | x | 6% | u | -5% | x | 10µM* | 7% | 3%
Cn1nccc1C(=O)NC1CCN(Cc2ccccc2)CC1 | x | 0% | u | -13% | x | 0%[46.1 µM] | -21% | 1%
CC1OC(NCCc2ccccc2)C(O)C(O)C1O (stereo not drawn) | -16% | 3% | 9% | -15% | -0.1% | 10% | -2% | 9%
CCOc1cccc(C2C(C(=O)c3cccs3)=C(O)C(=O)N2Cc2cccnc2)c1 (stereo not drawn) | x | 6% | 3%[46.1 µM] | 44%[activator] | x | 17%[46.1 µM] | -1% | -1%
CNC(=O)Oc1ccccc1C1CCCCC1 | x | -8% | 20%[46.1 µM] | -18% | x | -27%[46.1 µM] | x | x
CCOC(=O)N1CCN(c2c(NCCc3ccccc3)c(=O)c2=O)CC1 | 1% | 8% | x | -5% | 4.9% | x | 1% | -5%
CCN(CC)C(=O)c1sc2c(c1C)c(=O)n(Cc1ccccc1)c(=O)n2Cc1ccccc1C | u | x | u | u | -1.6% | x | x | x

The listing continues.
SMILES | Cruzain noTriton | RE007 growth inh | LASV entry inh | StopGo reporter | Cruzain Triton | Marburg entry inh | NS1 function inh | SARS PLpro yeast
C/C(N)=C(/C#N)C(=O)CSc1nc2ccccc2n1CC(C)C | x | -7% | 18% | -21% | x | 1%[46.1 µM] | x | 3%
O=C(NCc1ccco1)c1cccc(N2CCCC2=O)c1 | 1% | 0% | 19% | 32%[activator] | -5.0% | u | 5% | 10%
CCOC(=O)N1CCC(NC(=O)CCc2ccccc2)CC1 | x | 4% | u | -4% | x | 9% | 2% | 2%
O=C(CSc1nnc(Cc2ccc(Cl)cc2)o1)Nc1ccccc1 | x | 13% | x | 41%[activator] | x | x | -8% | -1%
CCN1C(=O)CC(N2CCOCC2)C1=O (stereo not drawn) | 2% | -15% | -1% | 2% | 3.0% | 0% | 5% | -3%
COc1ccc(CNC(=O)c2ccc(Br)s2)cc1OC | x | 3% | -24%[46.1 µM] | -5% | x | 6%[46.1 µM] | -10% | 1%
CN(C)S(=O)(=O)N1CCN(c2ccnc3cc(Cl)ccc23)CC1 | x | -9% | x | 0% | x | x | -5% | 4%
CCOC(=O)c1sc(N)nc1C(F)(F)F | x | -6% | 20%[46.1 µM] | -1% | x | 10%[46.1 µM] | x | x
COC(=O)CNC(c1ccccc1)c1cc(Br)ccc1NS(=O)(=O)c1ccc(C)cc1 (stereo not drawn) | u | -6% | u | -10% | -3.9% | u | u | -26%
COCCCn1c(SCC(=O)NNC(=O)c2cccc(O)c2)nnc1-c1ccncc1 | x | 1% | 3% | -5% | x | 4%[46.1 µM] | 5% | 0%
CS(=O)(=O)c1nc2c(cc1C#N)CCCC2 | x | 41% | -10% | -15% | x | 5% | 8% | 1%
CC(C)Nc1nc2c(-c3cccc(Br)c3)nnn2c2ccccc12 | 0% | x | 25%[46.1 µM] | 25% | -2.5% | u | x | x
